Bm FixLJ act = B. multivorans fixK reporter activation; hit rate 0.3% among 29,000; B. multivorans fixK-promoter GFP reporter, 18 h; hits give high values; z-score (concentration not given with the values);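 active means replicate mean overnight rise in green fluorescent reporter signal, 3 or more SD over negative controls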;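 further: score is relative to vehicle wells of the plate; 300 nL library stock went into each well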
An asterisk follows results filed as active; & = joins results of further samples. These rows are one share of the data (hit frequency here may not be typical).

canonical_smiles,Bm FixLJ act
Cc1ccc(C(C(=O)NCCc2nc(C)c(C(=O)O)s2)N(C)C)cc1 (configuration not stated),-0.58
O=c1[nH]nc(CCn2cccn2)n1Cc1ccc(Cl)cc1Cl,-3.54
NCCCC[C@H](N[C@@H](CCc1ccccc1)C(=O)O)C(=O)N1CCC[C@H]1C(=O)O,-0.36&-0.77
Cc1nnc(SCCCNC(=O)NC2(C(N)=O)CCCC2)s1,0.08
Cc1cnn(C(C)CNC(=O)c2cc(COc3ccccc3)[nH]n2)c1 (configuration not stated),0.26
CCN(CC)S(=O)(=O)c1ccc(C(=O)N2CC(=O)Nc3ccc(F)cc3C2c2ccccc2)cc1 (configuration not stated),-0.94
COc1ccccc1N(C)C(=O)Cn1c(=O)oc2cc(S(=O)(=O)N3CCCC3)ccc21,0.93
Cc1cccc(N2CCN(C(=O)CN3C(=O)COc4ccc(S(=O)(=O)N5CCC(C)CC5)cc43)CC2)c1C,0.33
Cc1nn(-c2ccccc2)c(OC(=O)C(C)(C)C)c1Sc1ccccc1,-0.99
Cc1ccc2c(c1)c1c(c(=O)n(Cc3ccccc3)c(=O)n1CC(=O)NCc1ccccc1Cl)n2C,1.24
CCOc1cc(C2Nc3ccccc3-c3nnc(SCc4ccccc4)nc3O2)ccc1OC (configuration not stated),-3.31
COc1ccc(OC)c(CNS(=O)(=O)c2ccc3c(c2)oc(=O)n3C)c1,0.59
Cc1cc2c(SCC(=O)NC(C)c3csc(C)n3)ncnc2s1 (configuration not stated),0.11
CCc1cccc(NC(=O)CSc2nccn2C)c1,-1.57
CCOc1ccccc1N(CC)C(=O)c1cc2c(=O)n(CC)c3ccccc3c2s1,0.93
CC(=O)NCCNC(=O)c1cc(COc2ccccc2)[nH]n1,0.42
COC(=O)c1ccc(NC(=O)CN(Cc2ccccc2)S(=O)(=O)c2ccc(C)cc2)cc1,0.28
COc1cccc(OC2CN(CC(=O)N3CC(C)OC(C)C3)C2)c1 (configuration not stated),0.55
CN(C)c1cccc(C(=O)N2CCN(Cc3ncn[nH]3)CC2)c1,-2.04
Cc1c(Cl)cccc1NC(=O)C1CCCN(C(=O)c2cnn(-c3ccccc3)c2-n2cccc2)C1 (configuration not stated),-0.97
Cc1cc2oc(=O)c(CC(=O)NCCc3ccccc3)c(C)c2c2occ(C(C)(C)C)c12,-2.6
COc1cc(OC)cc(C(=O)Oc2c(Sc3ccccc3)c(C)nn2C(C)(C)C)c1,-0.29
CCn1c(=O)c2cc(C(=O)Nc3cc(C)c(Cl)cc3OC)sc2c2ccccc21,0.15
CCc1nn(CC(=O)NC(C)CC)c(=O)c2cc3c(OC)cccc3n12 (configuration not stated),0.53
O=C(CCCN1CCC(O)(c2ccc(Cl)cc2)CC1)c1ccc(F)cc1,-1.86&-0.08

canonical_smiles,Bm FixLJ act
COc1cc(NS(=O)(=O)c2ccc(NC(=O)c3ccc(OC)c(Br)c3)cc2)nc(OC)n1,-1.81
CCCCOc1ccc(CN2CCn3nc(C(C)O)cc3C2)cc1 (configuration not stated),-2.16
COc1ccc(Oc2nc3c(c(=O)n(Cc4ccc(Br)cc4)c(=O)n3C)n2C)cc1,0.06
COc1cc(C(=O)Nc2ccc(-c3nc4ccccc4o3)c(O)c2)cc(OC)c1OC,0.74
Cc1ccc2c(c1C)NC(=O)CC2c1ccc(Cl)cc1Cl (configuration not stated),0.12
Cn1nc(C(F)(F)F)c(Cl)c1C(=O)NCc1nc(-c2cnccn2)n[nH]1,-1.73
Cc1nccn1CC1(CNC(=O)[C@]23COCC2CN(Cc2ccco2)C3)CC1 (some centres not stated),-0.16
Cc1ccc2oc(C(=O)Nc3ccc(S(=O)(=O)Nc4nc(C)cc(C)n4)cc3)cc(=O)c2c1,-0.75
Cc1ncccc1C(=O)N1C[C@@H]2CC(c3ccccc3)CC[C@]2(C(=O)O)C1 (some centres not stated),0.09
CCc1ccc(CNC(=O)c2nn(-c3ccc(C)cc3)c(=O)c3c2c2ccccc2n3C)cc1,0.63
O=C(NCCSc1ncn[nH]1)c1cccc(-c2ncc[nH]2)c1,-0.99
COc1ccc2c(c1)c(=O)c(S(=O)(=O)c1ccc(F)cc1)cn2CC(=O)Nc1ccc(C)cc1C,-1.75
Cc1nn(C)c2nc(N3CCCC(C(=O)N4CCCC4)C3)sc12 (configuration not stated),0.03
FC(F)(F)c1cccc(-c2nnn3c2nc(NC2CCCCC2)c2ccccc23)c1,0.33
COc1cccc(-c2cc(C(=O)NCc3ccc(F)cc3)no2)c1,-0.03
Cc1ccc(S(=O)(=O)N2CCN(Cc3cc(Br)ccc3O)CC2)cc1,1.26
Cc1ccc(C)c(Cn2cnc3c(cnn3-c3ccc(F)cc3)c2=O)c1,0.79
NS(=O)(=O)c1cccc(NC(=O)NCCc2nc3c(s2)CCC3)c1,-1.28
CCc1ccc(CN2C(=O)c3ccccc3C2C(=O)NC2CCCCCC2)cc1 (configuration not stated),-2.67
COc1ccc(CCNC(=O)Cn2nnc(-c3ccc(C(F)(F)F)cc3)n2)cc1OC,-0.57
O=C(Nc1ccc(OC(F)(F)F)cc1)C1CCCN(S(=O)(=O)c2cccc3nonc23)C1 (configuration not stated),-0.66
CNC(=O)CNC(=O)c1cc(COc2ccc3c(c2)CCCC3)on1,0.53
CCc1nn(CC(=O)NCc2ccc(C)cc2)c(=O)c2cc3occc3n12,-0.8
Cc1cccnc1CNC(=O)N(C)CCc1c(C)n[nH]c1C,-0.4
COc1c(Cl)cc(Cl)cc1CN1C[C@H]2COC[C@@H](C1)C(=O)N2,0.05

An excerpt of these results, as labelled records:
COc1ccc2c(c1)c(=O)c(S(=O)(=O)c1ccc(F)cc1)cn2CC(=O)Nc1ccc(C)cc1C
- Bm FixLJ act: -1.75
Cc1nn(C)c2nc(N3CCCC(C(=O)N4CCCC4)C3)sc12 (configuration not stated)
- Bm FixLJ act: 0.03
FC(F)(F)c1cccc(-c2nnn3c2nc(NC2CCCCC2)c2ccccc23)c1
- Bm FixLJ act: 0.33
COc1cccc(-c2cc(C(=O)NCc3ccc(F)cc3)no2)c1
- Bm FixLJ act: -0.03

More records.
canonical_smiles,Bm FixLJ act
CO[C@@H]1[C@@H](O[C@@H]2O[C@H](C)[C@@H](O[C@H]3C[C@@](C)(O)[C@H](O)[C@H](C)O3)[C@H](N(C)C)[C@H]2O)[C@@H](CC=O)C[C@@H](C)[C@@H](O[C@H]2CC[C@H](N(C)C)[C@@H](C)O2)/C=C/C=C/C[C@H](C)OC(=O)C[C@H]1O,-0.42
CCc1ccc2nc(C)cc(C(=O)N(C)C3COCC3O)c2c1 (configuration not stated),0.37
Cc1nc(N2CCCC(c3ccnn3CC(=O)O)C2)nc2c1CCCC2 (configuration not stated),0.61
CCOC(=O)c1c(C)n(-c2ccccc2)c2ccc(OC(=O)c3ccccc3Cl)cc12,-0.88
CCC[C@]1(C(=O)O)CN(c2cc(C)c3cc(CC)ccc3n2)CCC1O (some centres not stated),-0.92
CCc1cccc(C)c1NC(=O)Cn1cc2c(n1)CCCCC2,-2.33
Cc1ccccc1-c1nc(CS(=O)CC(=O)NCCc2ccc(Cl)cc2)c(C)o1 (configuration not stated),-0.95
Cc1nccn1CC(=O)N1CCCN(C(=O)CC2CCc3ccccc32)CC1 (configuration not stated),-2.73
NC[C@H](O)c1ccc(O)c(O)c1,-0.75&-1.12&-0.28
Cc1cc(C(=O)N2CCCC2)ccc1NC(=O)COc1ccc(-n2cnnn2)cc1,-4.25
CCOC(=O)N1CCC(NC(=O)c2ccc3c(c2)N(Cc2ccc(Cl)cc2)C(=O)c2ccccc2S3(=O)=O)CC1,-0.45
Cc1ccc(S(=O)(=O)N2CCN(Cc3ccc4c(c3)OCO4)CC2)cc1,-0.71
COc1cccc(NC(=O)CSCn2nnc3c(=O)[nH]c(Cc4ccc(F)cc4)nc32)c1,-1.42
CC(C)c1ccc(CCCC(=O)NC2COCC2Cc2ccncc2)cc1 (configuration not stated),-2.31
CCN1C(=O)C(Cc2nc3ccccc3c(=O)n2-c2ccc(OC)cc2)c2cc(C)ccc21 (configuration not stated),-0.77
Cc1cc(C)c2nonc2c1S(=O)(=O)NCCCCCN1CCOCC1,-1.38
CN(C1CCCCC1)S(=O)(=O)c1ccc2c(c1)c(=O)c(C(=O)NCCc1ccc(Cl)cc1)cn2C,-2.03
COc1ccccc1NC(=O)CN1CCC[C@@]2(CCCC2O)C1 (some centres not stated),-0.72
COc1ccc(CCNC(=O)c2csc3c2CCCCC3)c(OC)c1,-0.82
O=C(Nc1ccc(Cl)cc1)c1cc2nc(-c3ccc4c(c3)OCO4)cc(C(F)(F)F)n2n1,0.92
Cc1ccc2oc(=O)c3cc(C(=O)Nc4ccc(C)c(F)c4)sc3c2c1,-1.81
O=C(O)CCc1ccc(-c2ccccc2)n1-c1cccc(Br)c1,-1.36
Cc1ccc(C(=O)c2cn(Cc3cccc(F)c3)c3nc(C)ccc3c2=O)cc1,-1.13
Cc1ccc(-n2c(=O)c3c(C)c(C)sc3n(Cc3ccc(F)cc3Cl)c2=O)cc1C,-0.12
COc1ccccc1-c1noc(CCCC(=O)Nc2cc(C)ccc2C)n1,-0.75

canonical_smiles,Bm FixLJ act
Cc1cccc(-c2noc(CN(C(=O)c3ccc(C)c(C)c3)C(C)C)n2)c1,-0.05
COc1ccc(COC(=O)c2[nH]c3c(c2C)C(=O)CC(c2ccc(OC)c(OC)c2)C3)cc1 (configuration not stated),-0.55
Cc1cccc(NC(=O)Cn2c(=O)n(CCCCCC(=O)NCc3ccc4c(c3)OCO4)c(=O)c3sccc32)c1,-0.67
O=C(NCC1=CCCCC1)C1CC(=O)N(Cc2ccncc2)C1 (configuration not stated),1.51
CCSc1ncc(Cl)c(C(=O)Nc2ccc(S(=O)(=O)N(C)c3ccccc3)cc2)n1,0.35
Cc1cc(CC2CN(Cc3nc4ccccc4[nH]3)CC2O)on1 (configuration not stated),-1.61
COc1ccc(-n2c(=O)c3c4c(sc3n3c(SCCC(C)C)nnc23)COC(C(C)C)C4)cc1 (configuration not stated),-0.87
CSc1oc(-c2ccc(F)cc2)nc1S(=O)(=O)c1ccc(Br)cc1,-0.74
CC(C)[C@@]1(NC(=O)[C@@H]2C[C@@H]3c4cccc5[nH]cc(c45)C[C@H]3N(C)C2)O[C@@]2(O)[C@@H]3CCCN3C(=O)[C@H](Cc3ccccc3)N2C1=O,-1.79
CC(C)C(=O)N1CCC(CNC(=O)c2cccn3cnnc23)CC1,-2.14
CC(=O)N1CCC2(CC1)CN(Cc1c(C)nn(-c3ccccc3)c1C)CCO2,-0.09
CCC(=O)N1CCc2cc(S(=O)(=O)NC(C(=O)NCc3ccccc3Cl)C(C)C)ccc21 (configuration not stated),-0.08
COc1ccc(CCNC(=O)CS(=O)(=O)Cc2nc(-c3cccc(Cl)c3)oc2C)cc1OC,0.08
COc1cccc(-c2nn(C)c3sc(C(=O)N4CCN(c5cccc(C)c5)C(C)C4)cc23)c1 (configuration not stated),1.34
COc1ccc(CNC(=O)c2cc3sccc3n2C)cc1,-1.24
Cc1ccccc1C(=O)Nc1nc2nc(-c3ccccc3)cc(=O)n2[nH]1,-0.41
COc1ccc(NC(=O)Nc2cccc(-c3cn4cccnc4n3)c2)cc1,-0.45
CCn1c(C(=O)Nc2ccccc2C(=O)OC)cc2sc(Cl)cc21,2.02
COc1cccc(CNC(=O)Cc2c(C)c3c(cc(C)c4c(C)c(C)oc43)oc2=O)c1,-0.94
Cc1sc2ncn(CC(=O)N3CCN(c4ccc(F)cc4)CC3)c(=O)c2c1S(=O)(=O)N1CCN(c2ncccn2)CC1,-1.71
Cc1nc2c(-c3ccccc3)c(C)nn2c(C)c1CCC(=O)Nc1ccccc1F,-0.58
COCc1noc(CNC(=O)c2ccc(N(C)S(C)(=O)=O)cc2)n1,3.01*
CCc1ccc2oc(C(=O)N(Cc3ccc(N(C)C)cc3)Cc3ccco3)c(C)c2c1,0.58
COc1ccc(C(=O)c2oc3ccccc3c2NC(=O)COc2ccccc2)cc1,0.46
CCOC(=O)c1cc2c(=O)n3ccccc3nc2n(Cc2ccco2)c1=NC(=O)c1ccc(C)c(C)c1,-0.69

canonical_smiles,Bm FixLJ act
Cc1nn(CCNC(=O)c2cnc(Nc3ccccc3)nc2)c(C)c1C,0.61
CCc1cc(C(=O)NCc2cc3n(n2)CCCN(S(C)(=O)=O)C3)ccn1,0.97
CCCCC(=O)Oc1ccc2oc(-c3ccc(OC)cc3)cc(=O)c2c1,-1.51
O=C(Cc1ccc(Cl)cc1)Nc1ccc2nn(-c3ccc(Cl)cc3)nc2c1,0.65
Oc1c(I)cc(I)c2cccnc12,1.1
Cc1ccccc1-c1nc(CN2CCC(C(=O)NCCc3ccccc3)CC2)c(C)o1,-1.94
CC(C)c1cncnc1N1CCC(N2CCCC(C(=O)N3CCCC3)C2)CC1 (configuration not stated),0.71
O=C(C1CCCC1)N1CC2CN(Cc3cccc(F)c3)C[C@]2(C(=O)O)C1 (some centres not stated),0.33
Cc1ccc(C)c(-n2c(N)c(C#N)c3nc4ccccc4nc32)c1,2.55
O=C(C1CCN(S(=O)(=O)c2cccs2)CC1)N1CCN(c2cccc(Cl)c2)CC1,-1.5
Cc1ccc(NC(=O)Cn2cc(S(=O)(=O)c3ccc(F)cc3)c(=O)c3cc4c(cc32)OCO4)cc1,-2.07

Copied from the list.
Cc1ccc(C)c(-n2c(N)c(C#N)c3nc4ccccc4nc32)c1 – Bm FixLJ act: 2.55
Cc1nn(CCNC(=O)c2cnc(Nc3ccccc3)nc2)c(C)c1C – Bm FixLJ act: 0.61
CCCCC(=O)Oc1ccc2oc(-c3ccc(OC)cc3)cc(=O)c2c1 – Bm FixLJ act: -1.51

Screens: PubChem, ICCB-Longwood Screening Facility, Harvard Medical School
